Vaccinia inh – blocks a specific stage of Vaccinia orthopoxvirus infection, primary screen, cell-based, single point; Vaccinia-infected cells, mCherry/Venus stage reporter fluorescence; stronger effect = lower value; some inactives read as strong as hits; activity change (mCherry), % (concentration not given with the values); hit rate 0.01% among 89,000; AID 1053133, 2014;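 active = mCherry past -33% and 40 or more points under the early reporter, replicates agreeing; inconclusive = past -33% without that gap or agreement; tested in A549 cells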;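 note: scaled between vehicle wells and reference inhibitor wells; 23 nL library stock went into each well; one replicate is shown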
Vaccinia inh Venus – second read-out of Vaccinia inh, no call of its own (marks repeat the call); activity change (Venus), %; measured here: Venus reporter, other viral stage;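 negative = less Venus signal; first of two replicates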
Numbers without * were called inactive; ? = inconclusive; / = not tested or not shown.

Values in the order – Vaccinia inh Venus | Vaccinia inh
N#C[C@H]1[C@H](c2ccccc2-c2ccccc2F)[C@@H](CO)N1C(=O)C1CCOCC1
 : -5.9 | -14.4
C[C@H](CO)N1C[C@H](C)[C@H](CN(C)Cc2cccnc2)Oc2cc(C#CC3CC3)ccc2S1(=O)=O
 : -0.2 | 11.8
CCNC(=O)C[C@@H]1CC[C@H]2[C@@H](COC[C@@H](O)CN2C(=O)c2ccccn2)O1
 : 11.2 | 9.0
COc1ccccc1CN(C)C[C@@H]1OCc2cnnn2CCCC(=O)N([C@H](C)CO)C[C@@H]1C
 : 8.9 | 3.7
CC(=O)N(C)C[C@H]1Oc2cc(-c3ccc(F)cc3)ccc2S(=O)(=O)N([C@H](C)CO)C[C@@H]1C
 : -5.1 | -9.4
CC(C)c1cn(CC[C@@H]2CC[C@H](NC(=O)C3CCCC3)[C@H](CO)O2)nn1
 : 6.9 | -5.6
O=C(C[C@H]1CC[C@@H]2[C@H](COC[C@H](O)CN2C(=O)c2ccccn2)O1)NC1CCC1
 : -13.4 | -8.0
COc1ccccc1S(=O)(=O)N[C@H]1C=C[C@@H](CC(=O)N2CCCCC2)O[C@H]1CO
 : 15.6 | 12.6
O=C(C[C@H]1C[C@@H]2c3cc(NS(=O)(=O)c4ccc(F)cc4)ccc3O[C@@H]2[C@H](CO)O1)NC1CCCC1
 : -0.6 | 0.1
COC(=O)c1cn(CCCNC(=O)Nc2ccccc2)nn1
 : 5.8 | 15.5
COCC(=O)Nc1ccc2c(c1)C(=O)N(C)C[C@@H](OC)[C@@H](C)CN(Cc1ccccc1)[C@@H](C)CO2
 : 7.8 | 0.6
CCCN(C)C[C@H]1Oc2cc(-c3ccccc3)ccc2S(=O)(=O)N([C@H](C)CO)C[C@H]1C
 : -7.3 | -3.2
O=C1O[C@H](c2ccccc2)[C@H](c2ccccc2)N2[C@H]1[C@@H](C(=O)NC[C@H](O)c1ccccc1)[C@]1(C(=O)Nc3ccc(C#CCCO)cc31)[C@H]2c1ccc(OCCO)cc1
 : -5.0 | 2.0
O=C(Nc1ccc2c(c1)[C@H]1C[C@@H](CC(=O)N3CCc4ccccc4C3)O[C@H](CO)[C@H]1O2)c1cccnc1
 : 0.1 | -2.9
C[C@@H]1CN([C@@H](C)CO)C(=O)Cc2cc(NC(=O)c3ccncc3)ccc2O[C@H]1CN(C)Cc1ccc(-c2ccccc2)cc1
 : / | ?
Cc1ccc(S(=O)(=O)N(C)C[C@@H]2Oc3ccc(NC(=O)Cn4cnnn4)cc3CC(=O)N([C@@H](C)CO)C[C@@H]2C)cc1
 : 0.9 | 6.0
Cc1ccc(S(=O)(=O)N[C@H]2CC[C@@H](CCn3cc(C4CC4)nn3)O[C@@H]2CO)cc1
 : / | ?
CCC(=O)N1C[C@@H]2[C@H](c3ccccc31)[C@@H](CO)N2C(=O)CC1CC1
 : 4.8 | 6.0
COc1ccc(-c2ccc([C@H]3[C@@H](C#N)N(C(=O)NC(C)C)[C@H]3CO)cc2)cc1
 : / | ?
COc1cccc(S(=O)(=O)N2C[C@H](O)COC[C@H]3O[C@@H](CC(=O)N4CCN(C)CC4)CC[C@@H]32)c1
 : 4.6 | 10.7
C=CCN1C(=O)[C@]2(O[C@H](CCO)[C@@H]([Si](C)(C)c3ccc(OC)cc3)[C@@H]2C)c2cc(I)ccc21
 : / | ?
CCC(=O)N1C[C@H](O)COC[C@@H]2O[C@H](CC(=O)NCc3ccccc3Cl)CC[C@H]21
 : 3.1 | 6.9
C[C@H](CO)N1C[C@H](C)[C@H](CN(C)Cc2ccc(Cl)c(Cl)c2)Oc2ccc(NC(=O)CCCCCC(=O)Nc3ccccc3N)cc2C1=O
 : / | ?
COc1ccc(NC(=O)N(C)C[C@@H]2Oc3c(NS(C)(=O)=O)cccc3C(=O)N([C@H](C)CO)C[C@H]2C)cc1
 : 22.8 | 28.6
COc1ccc(NC(=O)N(C)C[C@@H]2Oc3ccc(NS(=O)(=O)c4ccccc4)cc3C(=O)N([C@H](C)CO)C[C@@H]2C)cc1
 : 13.5 | 18.0
C[C@@H]1CN([C@@H](C)CO)C(=O)c2cc(NC(=O)Cc3cn(C)c4ccccc34)ccc2O[C@H]1CN(C)S(=O)(=O)c1cccs1
 : -4.2 | -2.8
Cc1ccc(S(=O)(=O)N[C@H]2CC[C@H](CC(=O)NCCN3CCCCC3)O[C@H]2CO)cc1
 : 7.6 | 17.1
CN1C(=O)c2cc(NC(=O)C3CCCCC3)ccc2OC[C@@H]2O[C@@H](CC(=O)NCc3ccccc3F)CC[C@@H]21
 : 0.0 | -1.0
O=C(C[C@@H]1CC[C@H](NS(=O)(=O)c2ccc(F)cc2)[C@H](CO)O1)NCc1ccc(Cl)c(Cl)c1
 : -16.0 | -22.9
O=C(Cc1ccccc1)N1CC(=O)N2[C@H](CO)[C@H](c3ccc(-c4cccc(F)c4)cc3)[C@@H]2C1
 : -8.8 | -13.1
Cn1cnc(S(=O)(=O)N2C[C@H](O)COC[C@@H]3O[C@@H](CC(=O)N4CCN(c5ccccc5)CC4)CC[C@H]32)c1
 : 10.1 | 9.6
COc1ccc(NC(=O)N(C)C[C@@H]2OCCCC[C@@H](C)Oc3ccc(NC(=O)Nc4ccc(F)cc4)cc3C(=O)N([C@H](C)CO)C[C@@H]2C)cc1
 : 17.1 | 16.4
CC(C)NC(=O)N(C)C[C@H]1Oc2ccc(NC(=O)Nc3cccc4ccccc34)cc2CC(=O)N([C@@H](C)CO)C[C@H]1C
 : 1.6 | -3.6
C[C@H](CO)N1C[C@H](C)[C@@H](CN(C)CC2CC2)Oc2c(NC(=O)c3cnccn3)cccc2C1=O
 : 13.3 | 9.5
CCC(=O)N[C@H]1CC[C@@H](CCn2cc(-c3cccc(OC)c3)nn2)O[C@@H]1CO
 : 0.6 | 1.2
COc1ccc(S(=O)(=O)N2C[C@H](O)COC[C@@H]3O[C@@H](CC(=O)N[C@@H]4CCN(Cc5ccccc5)C4)CC[C@H]32)cc1
 : -3.7 | -15.4
CCC(=O)N1C[C@H](C)[C@@H](OC)CN(C)C(=O)c2cc(NC(=O)C3CCOCC3)ccc2OC[C@H]1C
 : 1.4 | 10.7
C[C@H](CO)N1C[C@H](C)[C@@H](CN(C)Cc2ccccc2)Oc2ccc(NS(=O)(=O)c3cccs3)cc2CC1=O
 : -25.8 | -26.1
O=C(Nc1nccs1)[C@H]1[C@H](CO)[C@H]2Cn3c(cccc3=O)[C@@H]1N2C(=O)C1CCC1
 : 19.2 | 19.4
COc1ccc2c3c([nH]c2c1)[C@H](CO)N(C(=O)C1CCCC1)CC31CN(Cc2nccs2)C1
 : -1.4 | -3.0
C[C@H](CO)N1C[C@H](C)[C@H](CN(C)Cc2ccc(Oc3ccccc3)cc2)Oc2ccc(NS(C)(=O)=O)cc2CC1=O
 : -8.8 | -10.0
CN1C(=O)c2cc(NC(=O)Cc3cccs3)ccc2OC[C@@H]2O[C@H](CC(=O)NCCc3ccncc3)CC[C@@H]21
 : 8.7 | 9.1
C[C@@H]1CCCCO[C@@H](CN(C)C(=O)Nc2ccc3c(c2)OCO3)[C@@H](C)CN([C@H](C)CO)C(=O)c2cc(NS(=O)(=O)c3cccs3)ccc2O1
 : 8.6 | 24.3
COc1cccc(S(=O)(=O)N(C)C[C@H]2Oc3ncc(C#CCC(C)C)cc3C(=O)N([C@H](C)CO)C[C@H]2C)c1
 : -2.6 | -7.2
CCC(=O)N1CC2(C1)[C@H](c1ccc(-c3ccccc3C)cc1)[C@@H](CO)N2C(C)=O
 : 7.7 | -2.7
O=C(NCc1nc2ccccc2[nH]1)C1=C[C@H](c2ccccc2)C[C@H](OCc2ccc(CO)cc2)O1
 : 5.1 | 9.2
CC=Cc1ccc2n(c1=O)C[C@H]1[C@H](CO)[C@@H](C(=O)Nc3ccc(-c4ccccc4)cc3)N(C(=O)CC)[C@@H]21 (mixture of isomers)
 : -16.7 | -16.7
C/C=C/c1ccc2c(c1)O[C@@H](CN(C)C(=O)Nc1cc(F)ccc1F)[C@@H](C)CN([C@H](C)CO)S2(=O)=O
 : -8.2 | -16.8
O=C(Nc1ccc2c(c1)OCO2)N[C@@H]1C=C[C@@H](CC(=O)N2CCN(c3ccccc3)CC2)O[C@H]1CO
 : -0.2 | -13.1
COc1cccc(CN(C)C[C@H]2OCc3cnnn3CCCC(=O)N([C@H](C)CO)C[C@@H]2C)c1
 : 9.5 | 5.4
CCNC(=O)C[C@@H]1CC[C@@H]2[C@@H](COc3ccc(NS(C)(=O)=O)cc3C(=O)N2C)O1
 : 3.3 | 0.1
COc1ccc(NC(=O)N2CC(=O)N3[C@H](CO)[C@H](c4ccc(/C=C/c5ccccc5)cc4)[C@@H]3C2)cc1
 : -24.1 | -24.1
COc1cccc(CNC(=O)C[C@H]2CC[C@H]3[C@@H](COc4ccc(NS(=O)(=O)c5ccccc5F)cc4C(=O)N3C)O2)c1
 : 7.0 | 7.4
CCC(=O)N1CC2(C1)[C@H](c1ccc(-c3ccc(F)cc3)cc1)[C@H](CO)N2S(C)(=O)=O
 : 2.7 | -6.9
O=C([C@H]1[C@H](CO)[C@H]2Cn3c(ccc(-c4ccccc4)c3=O)[C@@H]1N2)N1CCCCC1
 : 4.7 | 12.7
CCCC#Cc1ccc([C@H]2[C@H](C#N)N(S(=O)(=O)c3cccc(F)c3)[C@H]2CO)cc1
 : / | ?
C[C@@H]1CN([C@H](C)CO)C(=O)c2cc(NC(=O)C3CCCCC3)ccc2O[C@@H]1CN(C)C(=O)Nc1cccc2ccccc12
 : / | ?
C[C@H]1CN([C@@H](C)CO)C(=O)c2cc(-c3ccc(C#N)cc3)cnc2O[C@@H]1CN(C)Cc1ccccn1
 : -3.0 | -0.8
C[C@H]1CN([C@@H](C)CO)C(=O)c2cccc(NC(=O)NC3CCCCC3)c2O[C@H]1CN(C)C
 : 1.3 | 6.3
COC(=O)C1=C/c2ccccc2C(C2CC2)N(Cc2ccc(OC)cc2)/C=C\1C(=O)OC (stereo not drawn)
 : 2.7 | 10.1

Remaining list, next part:
Values in the order – Vaccinia inh Venus | Vaccinia inh
O=C(Nc1cccc(Cl)c1)N1C[C@H]2[C@@H](c3ccccc31)[C@@H](CO)N2C(=O)C1CC1
 : 10.6 | -9.2
C[C@@H]1CN([C@@H](C)CO)C(=O)c2cc(-c3cccc(C#N)c3)cnc2O[C@H]1CN(C)Cc1ccc(F)cc1
 : -12.2 | -12.3
C[C@@H](NC(=O)C[C@H]1CC[C@@H]2[C@H](COC[C@H](O)CN2C(=O)Nc2cccc(Cl)c2)O1)c1ccccc1
 : -10.4 | -20.2
CCCC(=O)Nc1ccc2c(c1)OC[C@@H](C)N(C(=O)c1ccncc1)C[C@@H](C)[C@H](OC)CN(C)C2=O
 : 2.5 | 12.8
O=C(C[C@H]1C=C[C@@H](NS(=O)(=O)c2ccccc2)[C@H](CO)O1)NCc1ccncn1
 : -1.1 | -13.6
O=C(c1cccc(F)c1)N1CC2(C1)[C@@H](c1ccccc1)[C@@H](CO)N2C(=O)C1CCCC1
 : 6.0 | 18.2
C[C@@H]1CN([C@@H](C)CO)C(=O)c2cc(C#C[C@@H](C)O)cnc2O[C@H]1CN(C)CC1CCCC1
 : 10.7 | 14.3
CCCC(=O)Nc1ccc2c(c1)C(=O)N(C)[C@@H]1CC[C@@H](CC(=O)Nc3cn(C)nc3C)O[C@@H]1CO2
 : 0.6 | 1.9
CCCN1C[C@@H](C)[C@@H](OC)CN(C)C(=O)c2ccc(NC(=O)c3cccc(F)c3)cc2OC[C@@H]1C
 : -13.3 | -12.7
COc1ccc(NC(=O)Nc2ccc3c(c2)C(=O)N([C@@H](C)CO)C[C@H](C)[C@@H](CN(C)Cc2ccc(C(=O)O)cc2)OCCCC[C@H](C)O3)cc1
 : 6.1 | 13.4
COc1ccc(NC(=O)Nc2cccc3c2O[C@@H](CN(C)C(=O)Nc2ccccc2)[C@H](C)CN([C@H](C)CO)C3=O)cc1
 : 9.2 | 3.6
C[C@H]1CN([C@@H](C)CO)C(=O)CCCn2nncc2CO[C@@H]1CN(C)C(=O)c1cc(-c2ccccc2)on1
 : 7.2 | 10.5
CS(=O)(=O)N1C[C@@H](O)COC[C@@H]2O[C@H](CC(=O)NCc3ccc(-c4ccccc4)cc3)CC[C@H]21
 : -8.6 | -10.7
CC(C)NC(=O)Nc1cccc2c1O[C@@H](CN(C)C)[C@@H](C)CN([C@H](C)CO)C2=O
 : 4.7 | 7.6
C[C@H]1CN([C@@H](C)CO)C(=O)c2cc(NS(=O)(=O)c3ccccc3)ccc2O[C@@H]1CN(C)S(=O)(=O)c1ccccc1
 : 7.9 | 17.8
Cc1ccccc1S(=O)(=O)N1CC[C@@H]2[C@H]1c1cc(-c3ccccc3)ccc1N(C)[C@H]2CO
 : -19.8 | -24.4
C/C=C/c1ccc([C@@H]2[C@@H](CO)N3C(=O)CN(Cc4ccccc4)C[C@@H]23)cc1
 : -2.3 | 1.4

5 entries picked at random from the list so far, as already listed:
Values in the order – Vaccinia inh Venus | Vaccinia inh
COc1ccc(NC(=O)N(C)C[C@@H]2OCCCC[C@@H](C)Oc3ccc(NC(=O)Nc4ccc(F)cc4)cc3C(=O)N([C@H](C)CO)C[C@@H]2C)cc1
 : 17.1 | 16.4
C[C@@H]1CCCCO[C@@H](CN(C)C(=O)Nc2ccc3c(c2)OCO3)[C@@H](C)CN([C@H](C)CO)C(=O)c2cc(NS(=O)(=O)c3cccs3)ccc2O1
 : 8.6 | 24.3
O=C(Nc1cccc(Cl)c1)N1C[C@H]2[C@@H](c3ccccc31)[C@@H](CO)N2C(=O)C1CC1
 : 10.6 | -9.2
C[C@H]1CN([C@@H](C)CO)C(=O)c2cc(NS(=O)(=O)c3ccccc3)ccc2O[C@@H]1CN(C)S(=O)(=O)c1ccccc1
 : 7.9 | 17.8
COc1cccc(CNC(=O)C[C@H]2CC[C@H]3[C@@H](COc4ccc(NS(=O)(=O)c5ccccc5F)cc4C(=O)N3C)O2)c1
 : 7.0 | 7.4

Compound activity as filed in PubChem BioAssay.

The list is partial. The share of hits here may be higher or lower than overall.
